NPYLR7 agonist – mosquito NPYLR7 agonism | HEK293T NPYLR7/Galpha15, GCaMP6s calcium fluorescence | activation, % at 10 µM | 0.15% of 270,000 active | AID 1259423; in the data active = activation above about 40%;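 note: 0% = vehicle and 100% = reference agonist at the receptor; some compounds past the cut are filed as inactive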
NPYLR7 agonist max-min – recorded beside NPYLR7 agonist, whose call it bears; activation, %; measured here: Max-Min RFU normalised activation; some inactives read as strong as hits;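 span of the calcium signal over five minutes; 0% = vehicle and 100% = native peptide agonist; compound fluorescence can raise it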
Active calls of the source: *; & = joins results of further samples. A portion of the library (hit frequency here may not be typical).

SMILES | NPYLR7 agonist | NPYLR7 agonist max-min
CCCC1(CNC(=O)C(C)OC)CCC1 (stereo not drawn) | 16 | 8
Cc1cccc(-c2noc(N3CCOCC3)c2CN(Cc2ccco2)C(=O)Cc2ccccc2)c1 | 6 | 11
COc1cc2c(C)nc3c(c(C)nn3-c3ccccc3)c2cc1OC | 1 | 1
Cc1nn(CCO)cc1CN1CCCN(c2ccccc2)CC1 | 3 | 2
COc1ccc(-c2cc3c(=O)n(Cc4nc(-c5cccc(Cl)c5)oc4C)ccn3n2)cc1 | 5 | 4
CC1(C(=O)NC2CCCCCC2)CCN1C(=O)C1(c2ccccc2)CC1 (stereo not drawn) | 5 | 19
CC(=O)c1c[nH]c(C(=O)NC2CCCN(c3ccc(C)cc3)C2=O)c1 (stereo not drawn) | 8 | 5
Cc1ccccc1CN(C)C(=O)CN1C(=O)c2ccccc2S1(=O)=O | 1 | 6
COC(=O)C1=C(C(=O)OC)SC(=CC(=S)c2ccc(OC)cc2)S1 | 8 | 12
Cc1noc(-c2cccc(C(F)(F)F)c2)c1C(=O)N1CCC(Cc2ccccc2)CC1 | -2 | 2
Cc1c(C(=O)NCC2CN(CC(C)C)CCO2)oc2c(F)cccc12 (stereo not drawn) | -2 | -4
COc1ccc(C(Nc2ccccn2)c2c(C)[nH]c3ccccc23)cc1 (stereo not drawn) | -1 | -2
COc1ccc(-c2nn(-c3ccccc3C)cc2CN2CCCCC2CO)cc1F (stereo not drawn) | -3 | -3
Cc1ccccc1NC(=O)Nc1ccc(-n2nc(OC(C)C)nc2-c2cccc(F)c2)cc1 | 19 | 17
COCCn1cc(NC(=O)Nc2cc(C)ccn2)c2ccccc21 | 12 | 4
COc1ccc(-n2c(=O)[nH]c3c(C(N)=O)ncnc32)cc1OC | -9 | -10
COCCN(Cc1ccccc1OS(=O)(=O)c1ccc(OC)cc1)C(=O)c1cccs1 | 14 | 12
COCCNC(=O)c1ccc(OC2CCN(C(=O)C3=CCCC3)CC2)c(Cl)c1 | 14 | 7
OCC#Cc1csc(CN2CC[C@@H](c3ccc(F)cc3)[C@H](O)C2)c1 | 1 | -2
C=CCSc1nc2c(c(=O)[nH]1)C(c1cccc(C)c1)C(C(=O)OC(C)C)=C(C)N2 (stereo not drawn) | -4 | -6
Cc1cc(C(=O)O)ccc1-c1ccc(/C=N\n2cnnc2)o1 | -5 | -10
CN(C(=O)c1cc(COc2ccc3c(c2)OCO3)[nH]n1)C1CCOC1 (stereo not drawn) | 2 | -2
CC(C)c1cnc2c(c1SCC(=O)Nc1cccc3ccccc13)c(=O)n(C)c(=O)n2C | 0 | 7
CCOc1ccc(OCC)c(S(=O)(=O)NC2CC(C)(C)NC(C)(C)C2)c1 | 1 | 3
COc1ccc(S(=O)(=O)CC(=O)N(Cc2cccnc2)c2nc3cc(C)c(C)cc3s2)cc1 | 5 | -1
Cc1cccc(-c2cc(N3CCN(C)CC3)n3nccc3n2)c1 | -1 | -3
CCCCc1cnc2c(c1SCc1ccccc1)c(=O)n(C)c(=O)n2C | 5 | 10
Cc1ccc2c(c1)C(C)(c1ccccc1)CC(C)(C)N2C(=O)CN1CCOCC1 (stereo not drawn) | 1 | 1
CN1C[C@H](NC(=O)/C=C/c2ccccc2)C[C@H]1CO | 3 | 2
Cc1cc(C)c(OCC(=O)NC(c2ccccc2)C2CC2)c(C)c1 (stereo not drawn) | -3 | -2
Cc1cc(C(=O)N2CCC(C(=O)NCc3ccco3)CC2)ccc1F | 1 | 1
COc1ccc(-n2nc(C)c(C(=O)O)c2C)cc1 | 10 | 15
CC(c1nccs1)N(C)C(=O)c1cccc(NC(=O)C2CCCC2)c1 (stereo not drawn) | -8 | -12
CCN1CCN(C(=O)c2cccc(CSc3nc(Cl)cc(N4CCN(C/C=C/c5ccccc5)CC4)n3)c2)CC1 | 23 | 19
C=C(NN=c1sc2ccccc2n1C)c1ccc(Cl)s1 | 6 | 5
CC(CNc1cncc(Cl)n1)CN(C)C(=O)OC(C)(C)C (stereo not drawn) | 4 | 8
CCc1nc2ccc(C(=O)NCCN3CCNC3=O)cn2c1N(C)C(=O)c1cccc(OC)c1 | 17 | 16
O=C(NCCc1cnc[nH]1)C1CCCN(C2CCN(Cc3ccccc3)CC2)C1 (stereo not drawn) | 10 | 9
Cc1nc(SC(C)C(=O)Nc2nccs2)cc(-c2ccccc2)n1 (stereo not drawn) | -3 | -16
CC(C)=CC(=O)O[C@@H]1CCC[C@H]1n1cccn1 | 3 | -2
CCCCCc1ccc(-c2nc(-c3ccncc3)no2)cc1 | -7 | -8
COc1cccc2sc(N(CCN(C)C)C(=O)/C=C/c3cccs3)nc12 | -6 | -9
CC(OC(=O)C1C2CC3CC(C2)CC1C3)C(=O)NC1CC1 (stereo not drawn) | 10 | 6
CCc1ccc2oc3c(c(=O)c2c1)C(c1cccnc1)N(c1cc(C)on1)C3=O (stereo not drawn) | 5 | 2
O=C(CN1CCOC1=O)NCc1cnn(-c2ccc(F)cc2)c1 | -2 | -11

A second format for part of the listing above.
compound,NPYLR7 agonist,NPYLR7 agonist max-min
CC(C)=CC(=O)O[C@@H]1CCC[C@H]1n1cccn1,3,-2
CCCCCc1ccc(-c2nc(-c3ccncc3)no2)cc1,-7,-8

Compound profiles, from the list above.
COc1cccc2sc(N(CCN(C)C)C(=O)/C=C/c3cccs3)nc12 is entered as NPYLR7 agonist: -6; NPYLR7 agonist max-min: -9
O=C(NCCc1cnc[nH]1)C1CCCN(C2CCN(Cc3ccccc3)CC2)C1 (stereo not drawn) is entered as NPYLR7 agonist: 10; NPYLR7 agonist max-min: 9
COc1ccc(C(Nc2ccccn2)c2c(C)[nH]c3ccccc23)cc1 (stereo not drawn) is entered as NPYLR7 agonist: -1; NPYLR7 agonist max-min: -2

(more compounds)
SMILES | NPYLR7 agonist | NPYLR7 agonist max-min
COc1cccc(C(=O)N2CCN(C(=O)CCCCSc3nnc(Cc4ccccc4)n3-c3ccc(C)cc3)CC2C)c1 (stereo not drawn) | 2 | 7
CSc1ncc(C(=O)N2CCN(C(=O)c3ccc(=O)[nH]c3)CC2)n1-c1ccc(F)cc1 | 15 | 12
O=c1ccccn1Cc1cccc(F)c1 | 1 | -1
CCC(C(=O)N1CCC2(CC1)NC(=O)c1cc(Cl)ccc1N2)c1ccccc1 (stereo not drawn) | 1 | 5
O=C(c1cn(Cc2ccccc2Cl)nn1)N1CCN(c2ccccc2O)CC1 | 10 | 1
CCOc1ccc(C2CCCN2CC(=O)NCc2ccc(C)c(F)c2)cc1 (stereo not drawn) | -1 | -1
CCN(CC)S(=O)(=O)c1ccc(CNC(=O)NCC2CC2)s1 | -2 | -5
O=C(NC(=S)NCCN1CCOCC1)c1ccco1 | -1 | -3
COc1ccc2cc(C3CN(C(=O)c4cn5ccsc5n4)CCO3)ccc2c1 (stereo not drawn) | 4 | 2
Cn1c(Nc2cccc(/C=C/c3ccccn3)c2)c(C#N)c(=O)n(C)c1=O | 0&1 | -2&2
Cc1cc(NC(=O)Cc2ccccc2)n(-c2nc(C)c(C)c(=O)[nH]2)n1 | 9 | 2
COc1ccc(CCS(=O)(=O)Cc2ccc(OC)c(Br)c2)cc1 | 10 | 5
CS(=O)(=O)Nc1nc2n(n1)C(c1ccccc1)CC(c1ccc(Cl)cc1)=N2 (stereo not drawn) | 66* | 51*
COc1ccccc1N1CCN(c2ccc(NC(=O)Nc3ccc(C(F)(F)F)cc3)cc2C(=O)NCCN2CCOCC2)CC1 | -6 | -8
CC1=CC(=O)N(CCCn2cccn2)C1=O | -7 | -10
N#CC(=Cc1cc2c(cc1[N+](=O)[O-])OCO2)C(=O)Nc1cccc(Cl)c1Cl | 2 | 1
CC(=O)Oc1c(-c2ccc(NC(=O)c3cccs3)cc2)c(-c2cccc(C)c2)nn1-c1cccc(F)c1 | 0 | 8
COc1cccc(OC)c1-c1ccc(-n2cncc2C(=O)NC[C@H]2CCCO2)cc1 | 21 | 28
Cc1cc(N)n(CC(=O)NCCn2c(C)cc3ccccc32)n1 | 1 | 2
COc1ccc(S(=O)(=O)N(C)C2CCS(=O)(=O)C2)cc1OC (stereo not drawn) | 1 | 0
C=CCN(Cc1nccn1Cc1ccc(F)c(F)c1)C(=O)c1ccc(Cl)cc1 | 3 | 5
CCn1cnnc1SCc1nc(N)nc(N)n1 | 3 | 1
COc1cn2c(cc1=O)C(=O)N(CCNC(=O)COc1ccc(F)cc1)CC2 | 7 | 2
CCC(C)N(Cc1cccc(OS(=O)(=O)c2cccc(C(F)(F)F)c2)c1)C(=O)Nc1ccc(F)cc1F (stereo not drawn) | 20 | 25
Cc1nn(C2CCS(=O)(=O)C2)c2nc(-c3ccco3)cc(C(=O)Nc3nc4ccccc4s3)c12 (stereo not drawn) | 3 | 6
CNc1cc(-c2ccc(C(=O)O)cc2C)c2cc[nH]c2n1 | -2 | -3
CN(C)c1ccc(CNCC2(c3ccnc(-c4cccc(N(C)C)c4)c3)CC2)cc1 | -2 | -5
CCOC(=O)c1cc(C(C)C)sc1NC(=O)CCc1ccccc1 | -3 | -6
CCc1nc2ccc(C(=O)NCCN3CCOCC3)cn2c1N(CC)C(=O)CCC1CCCC1 | 16 | 8
CC1(C)OC(=O)C(=Cc2cccn(C(C)(C)C)c2=S)C(=O)O1 | -5 | -7
O=C(Cn1cnc(-c2ccccc2)cc1=O)c1ccccc1 | -7 | -13
O=P1(NCc2ccc(Cl)cc2)C=C(c2ccccc2)SC(c2ccccc2)=C1 | -8 | -16
Cc1ccccc1CCNC(=O)c1ccc2c(c1)CCC(=O)N2 | 3 | 5
O=c1[nH]nc(C2CCCN(c3ncnc4sccc34)C2)n1-c1ccccc1 (stereo not drawn) | 0 | 3
C=CCn1c(SCC(=O)Nc2sc3c(c2C(N)=O)CCC3)nc2sc3c(c2c1=O)CCC3 | -4 | -9
CCN(CC)Cc1cnc2c(C(=O)N(C)Cc3cccc(Cl)c3)cnn2c1 | 3 | -1
CC(C)NC(=O)N1CCCC(OCc2ccc(C(F)(F)F)cc2)C1 (stereo not drawn) | -1 | 3
CN1CCC(Cc2noc(-c3[nH]cnc3-c3ccccc3)n2)CC1 | 3 | -3
Cc1ccc(NC(=NS(=O)(=O)c2ccc(C)cc2)Nc2nc(C)cc(C)n2)cc1 | 0 | -4
CCS(=O)(=O)c1ncc(CN2C[C@@H]3CCC[C@H]2C3)n1CCCc1ccccc1 | 7 | 4
COCCn1c(C)cc(O)c(C(c2ccc(OC)cc2)N2CCN(c3ccccn3)CC2)c1=O (stereo not drawn) | 10 | 1
Cc1cc2ncc3c(n2n1)NC(c1ccc(Cl)cc1Cl)NC3=O (stereo not drawn) | 5 | 3
CCCCN(C)c1nccnc1-c1ccc(CO)cc1 | -1 | -2
CCCn1c(O)c(C=Nc2ccc(C(=O)OC)cc2)c(=O)[nH]c1=S | -5 | -8
CCOC(=O)c1cc(-c2ccc(N3CCN(C(=O)C(C)Oc4ccccc4)CC3)cc2)n(-c2ccccn2)n1 (stereo not drawn) | 10 | 1

Overlap with the part before: 6 compounds; new compounds follow.
SMILES | NPYLR7 agonist | NPYLR7 agonist max-min
CCS(=O)(=O)c1ncc(CN2C[C@@H]3CCC[C@H]2C3)n1CCCc1ccccc1 | 7 | 4
COCCn1c(C)cc(O)c(C(c2ccc(OC)cc2)N2CCN(c3ccccn3)CC2)c1=O (stereo not drawn) | 10 | 1
Cc1cc2ncc3c(n2n1)NC(c1ccc(Cl)cc1Cl)NC3=O (stereo not drawn) | 5 | 3
CCCCN(C)c1nccnc1-c1ccc(CO)cc1 | -1 | -2
CCCn1c(O)c(C=Nc2ccc(C(=O)OC)cc2)c(=O)[nH]c1=S | -5 | -8
CCOC(=O)c1cc(-c2ccc(N3CCN(C(=O)C(C)Oc4ccccc4)CC3)cc2)n(-c2ccccn2)n1 (stereo not drawn) | 10 | 1
CC1CN(C)CCN1Cc1nnc(-c2c(Cl)cccc2Cl)o1 (stereo not drawn) | 4 | 1
COc1ccc(CNC(=O)C2(C)Cc3c(-c4ccc(N(C)C)cc4)ccnc3O2)cc1OC (stereo not drawn) | 2 | 11
CC(C)Oc1ccc(OCCSc2nc3ccccc3n2Cc2ccccc2)cc1 | -3 | -5
Cn1c(=O)[nH]c(=O)c2c1nc(N1CCNCC1)n2Cc1ccccc1F | 0 | 22
CCCCn1c(=O)c(C#N)cc2c(=O)n3cc(C)ccc3nc21 | 3 | 3
COc1cccc2ccc(-c3ccccc3CO)nc12 | 3 | 1
Cc1nc(C)c(C(=O)N2CCN(CC(F)(F)F)c3ccccc32)o1 | -5 | -3
CN=c1scc(C)n1N=Cc1cc(Br)c(O)c(Br)c1 | 1 | 1
O=C(Cn1c(=O)oc2ccccc21)N1Cc2cnn(CCO)c2C1 | 2 | 0
CN1CC2=C(C1=O)C(c1ccc(O)cc1)NC(=O)N2 (stereo not drawn) | 2 | 8
CCCc1c(C)nn(-c2ccc(C(=O)Nc3ccccc3Nc3ccccc3)cc2)c1C | 24 | 14
Cc1cc(Cc2ccc(S(=O)(=O)N3CCc4ccccc4C3)s2)c(=O)[nH]n1 | 18 | 18
CCC(CC)CN(CC)CC(O)Cn1cccn1 (stereo not drawn) | -2 | -6
CN1C(=O)N(C)C2C1N(CO)C(=O)N2CO (stereo not drawn) | 6 | 3
COc1ccccc1-c1nc(C)c(-c2ccc(SCC(=O)Nc3nc(C)cs3)nn2)s1 | 2 | 4
COc1nc(-c2ccc(C(F)(F)F)cc2)n(-c2cccc(NC(=O)c3cccc([N+](=O)[O-])c3)c2)n1 | 0 | 4
CC(C)c1ccc(NC2=NS(=O)(=O)c3ccccc32)cc1 | 5 | 3
CCOC(=O)C1(CCCc2ccccc2)CCN(C(=O)c2cnsn2)CC1 | 5 | 2
COc1cc2c(O)c3c(c(-c4ccc5c(c4)OCO5)c2cc1OC)C(=O)OC3 | -3 | -3
c1nc(NN=C2C3CC4CC(C3)CC2C4)c2c3c(sc2n1)CCC3 | -2 | -3
COc1cccc(Oc2ccc(C(F)(F)F)cc2NC(=O)c2cnccn2)c1 | 2 | 3

Compound activity deposited in PubChem by Fisher Drug Discovery Resource Center.
